High-throughput results as filed in PubChem BioAssay.
Sfp inh: Sfp phosphopantetheinyl transferase inhibition; Q9F4F7; Biochemical Sfp PPTase activity, qHTS; Potency, µM, inactives show max response, negative = inhibition, hits mostly inhibitors; actives 3.5% (n = 310,000); active means well fitted inhibition curve with a large enough effect; inconclusive means small, poorly fitted or top-dose-only effect, or another doubt; inactive means no such curve, though single readings can be large or run the other way;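 further: the enzyme is Sfp with the accession as filed and its product quenches rhodamine fluorescence; potency means the concentration at half of the fitted maximal effect; 0% = enzyme reaction without inhibitor and -100% = no enzyme wells; top concentration of the series not given in the record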
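Buffer: 50 mM Hepes-Na pH 7.6, 10 mM MgCl2, 0.01% Nonidet P-40, 0.01% BSA. Enzyme 15 nM, pre-exposed to compound 15 min; substrates then added and fluorescence change tracked over 30 min.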
Menin-MLL FL inh: displaces fluorescein MLL peptide from human menin | AID 1766 | FP activity change, % at 61.4 µM | 290,000 tested, under 10 active | Fluorescence polarization, fluorescein-MLL peptide displacement from menin; inconclusive = falling polarisation curve, or a change in total fluorescence; inactive = total fluorescence flat and polarisation flat or rising; no compound was filed as active; the % refers to the polarisation; negative = inhibition;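 further: % of control where 0% means no effect; inhibitors lower the polarisation; unlabelled MLL peptide was the positive control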
gsp antag: antagonists of gsp mutant (McCune-Albright syndrome). AID 624288. actives 0.4% (n = 340,000). gsp-mutant cells, cAMP HTRF, 30 min; control for the full effect not named in the record. Potency, µM (top dose mostly 76.9 µM), for inactives: top-dose activity change, negative = inhibition, actives largely listed as inhibitors; active = falling curve of any shape with a large fitted effect; inconclusive = falling curve, mostly with a smaller effect; inactive = flat or rising curve; cell line not stated here;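 further: intracellular cAMP measured with PDE inhibitor Ro 20-1724 present during compound exposure; potency means the concentration at half of the fitted maximal effect; on the % scale 0 is the no-effect control and ±100 the full control effect; nearly all actives have a fitted effect of over 65% in size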
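HTRF cAMP read-out (cAMP-d2 plus anti-cAMP antibody-K in lysis buffer, 30 min RT). Before lysis, cells are exposed to compounds with […] for 30 min at 37C in DPBS containing Ca/Mg, BSA and Tween 20.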
TRPML1 inh: inhibitors of human TRPML1 channel; actives 0.02% (n = 390,000); AID 624415; activity change, negative = inhibition, % (concentration not given with the values); TRPML1-inducible cells, Ca2+ dye fluorescence, FDSS; active compounds read low; inhibition of EC80 agonist-evoked calcium signal; Q9GZU1; in the data active means activity change below about -50%; inconclusive means about -30% to -50%; inactive means above about -30%;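 further: stimulus is agonist 54-4 at its EC80 concentration; on the % scale 0 is the no-effect control and ±100 the full control effect; the text of the record puts the active cut at -80%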
Target sequence (Q9GZU1 whole entry, looked up): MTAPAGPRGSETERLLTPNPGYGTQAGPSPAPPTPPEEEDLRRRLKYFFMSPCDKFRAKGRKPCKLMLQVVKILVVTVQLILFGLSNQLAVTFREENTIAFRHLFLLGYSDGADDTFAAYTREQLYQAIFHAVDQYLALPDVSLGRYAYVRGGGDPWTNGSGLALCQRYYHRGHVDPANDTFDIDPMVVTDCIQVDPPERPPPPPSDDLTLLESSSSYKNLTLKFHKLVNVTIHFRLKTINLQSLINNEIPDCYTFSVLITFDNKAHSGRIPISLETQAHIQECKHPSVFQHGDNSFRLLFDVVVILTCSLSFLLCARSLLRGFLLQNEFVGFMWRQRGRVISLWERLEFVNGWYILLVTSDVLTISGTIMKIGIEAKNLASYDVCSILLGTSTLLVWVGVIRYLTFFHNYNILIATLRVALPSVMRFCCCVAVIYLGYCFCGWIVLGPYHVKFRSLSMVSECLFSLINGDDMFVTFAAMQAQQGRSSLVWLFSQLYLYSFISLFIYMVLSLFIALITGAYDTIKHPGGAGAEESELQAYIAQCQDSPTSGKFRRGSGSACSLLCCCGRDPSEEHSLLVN
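Calcium fluorescence in TRPML1-DL cells induced overnight with Tet: a 110 s read after compound pin addition, then a 110 s antagonist read after challenge with 54-4 at 4 uM final (EC80).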
TRPV1 potentiator: enhances activation of the human vanilloid receptor TRPV1; AID 540277; TRPV1-expressing cells, Fluo-8 calcium influx, capsaicin EC20 potentiation; host cell line not named in the record; control for the full effect not named in the record; actives 0.02% (n = 320,000); potentiation, % at 8.33 µM; Q8NER1; active means potentiation above 80%; inconclusive means 30% to 80%; inactive means below 30%; further: 0% is about no effect
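TRPV1-expressing cells were cultured overnight at 35.5C and loaded with Fluo-8 calcium dye for 40 to 90 min at room temperature. After a 10 s baseline, compound was added and calcium influx was read kinetically for 3 min (ex 480/em 520 nm).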
gsp ag: activates gsp, the McCune-Albright syndrome mutation. gsp mutant cells, cAMP HTRF, 30 min; control for the full effect not named in the record. Potency, µM (doses to about 76.9 µM), for inactives: at the highest dose activation (cAMP increase), hits mostly activators. actives 0.13% (n = 340,000); active = well fitted activation curve with a large enough effect; inconclusive = small, poorly fitted or top-dose-only effect, or another doubt; inactive = no such curve, though single readings can be large or run the other way; cell line not stated here;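 further: phosphodiesterase inhibitor Ro 20-1724 added with compounds to block cAMP breakdown; potency means the concentration at half of the fitted maximal effect; nearly all actives have a fitted effect of over 60% in size; about a fifth of the inactives were tested at one dose only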
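Cells in DMEM/10% FBS with G418 were pretreated with compounds in DMSO plus […] (300 uM stock) for 30 min at 37C. cAMP was measured by HTRF (cAMP-d2 plus anti-cAMP antibody-K) after 30 min at room temperature.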
ClpP mod: qHTS Assay for Activators of ClpP. actives 1.9% (n = 340,000). purified B. subtilis ClpP, FRET peptide cleavage, 20 min. Potency, µM (doses to about 57.5 µM), for inactives: at the highest dose activity change, negative = active; active = well fitted falling curve with a large enough effect; inconclusive = small, poorly fitted or top-dose-only effect; inactive = no such curve, though single readings can be large or run the other way; further: potency means the concentration at half of the fitted maximal effect; the source files actives as falling curves though it sought activators and does not explain the sign; nearly all actives have a fitted effect of over 65% in size; many hits overshoot -100%
Target sequence (P80244 whole entry, looked up): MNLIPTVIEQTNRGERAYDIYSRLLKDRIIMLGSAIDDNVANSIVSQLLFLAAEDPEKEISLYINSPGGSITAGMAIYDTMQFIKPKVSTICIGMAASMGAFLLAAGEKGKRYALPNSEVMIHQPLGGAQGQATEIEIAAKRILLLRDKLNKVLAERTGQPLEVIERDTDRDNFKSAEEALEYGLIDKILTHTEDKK
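Purified B. subtilis ClpP, 10 microg/mL final in Tris/HCl pH8 with KCl, BSA, glycerol and Tween-20, cleaved an Abz/nitrotyrosine-quenched decapeptide. Fluorescence (ex 320, em 430) was read at 0 and 20 min at room temperature. Delta was normalized to 5.8 microM ADEP and DMSO/no-enzyme controls.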
The depositor's hits bear a star; [ ] = remark or other dose. Rows are unselected; any-hit rate near 4.9%.

Screening O=C(NCC(c1ccco1)N1CCN(c2ccccc2F)CC1)OCc1ccccc1 (stereo not drawn) returned Sfp inh 10%, Menin-MLL FL inh -0.1, gsp antag -9%, TRPML1 inh 2, TRPV1 potentiator inconclusive, gsp ag -12% and ClpP mod 0.2%.
O=C(Nc1n[nH]c(C2CCCCC2)n1)C1CCCCC1 was read as Sfp inh 11%, Menin-MLL FL inh -1.6, gsp antag 1%, TRPML1 inh 1, TRPV1 potentiator -13, gsp ag -4% and ClpP mod 0.3%.
For O=C(c1ccccc1)N1CCN(C(=O)c2nn3c(C(F)(F)F)cc(-c4ccco4)nc3c2Cl)CC1 the results were Sfp inh 19%, Menin-MLL FL inh -2.0, gsp antag -8%, TRPML1 inh 17, TRPV1 potentiator -2 and gsp ag 8%.
`Cn1c(N)c(C(=O)COC(=O)CCC2CCCCC2)c(=O)n(C)c1=O` gave Sfp inh -3%, Menin-MLL FL inh -3.3, gsp antag 2%, TRPML1 inh -13, TRPV1 potentiator 13, gsp ag 20%[15.4 µM] and ClpP mod -2.8%.
Screening CCCCCNC(=O)c1cccnc1SCC(=O)Nc1ccccc1OC returned Sfp inh 9%, Menin-MLL FL inh 0.6, gsp antag -3%, TRPML1 inh 21, TRPV1 potentiator 5, gsp ag -3% and ClpP mod 0.5%.
CCN(CC)CCCn1c2c(c(SCC(=O)Nc3nc(C)cs3)nc1=O)CCC2 was read as gsp antag 13%, TRPML1 inh -4, TRPV1 potentiator 21, gsp ag -6% and ClpP mod -4.7%.
Screening CNc1nc2sc3c(c2c(=O)n1C)CC(C)(C)SC3 returned Sfp inh 6%, Menin-MLL FL inh 0.8, gsp antag 3%, TRPML1 inh -19, TRPV1 potentiator -9, gsp ag 14% and ClpP mod -9.9%.
Screening CCN(CC)C(=O)C1=C(C)N(Cc2ccc(OC)cc2)C(=O)C(CC(=O)NCc2cccc3ccccc23)C1 (stereo not drawn) returned TRPML1 inh 3, gsp ag -39%[inhibitor] and ClpP mod -1.2%.
For Cc1c(NC(=O)Nc2c(Cl)cccc2Cl)c(=O)n(-c2ccccc2)n1C the results were Sfp inh 10%, Menin-MLL FL inh 0.1, gsp antag 4%, TRPML1 inh 6, TRPV1 potentiator 2, gsp ag inconclusive and ClpP mod -0.2%.
For CCOC(=O)C1(CCCc2ccccc2)CCN(S(=O)(=O)N(C)C)CC1 the results were Sfp inh 14%, Menin-MLL FL inh -1.1, gsp antag -12%, TRPML1 inh -14, TRPV1 potentiator -29 and gsp ag -43%[inhibitor].
`CC(=O)c1cccc(CN2CCCCC2C(=O)Nc2ccc(Oc3ccccc3)nc2)c1` (stereo not drawn) gave Sfp inh 11%, gsp antag -24%, TRPML1 inh -9, TRPV1 potentiator -1, gsp ag 3%[15.4 µM] and ClpP mod 2.3%.
For CCOC(=O)N/N=C/c1c(F)cccc1F the results were Sfp inh -2%, Menin-MLL FL inh -1.5, gsp antag 13%, TRPML1 inh 4, TRPV1 potentiator 6, gsp ag -18% and ClpP mod 0.1%.
Screening Cc1ccc(S(=O)(=O)c2nc(C(C)(C)C)oc2N2CCOCC2)cc1 returned Sfp inh 28µM*, Menin-MLL FL inh 1.5, gsp antag 4%, TRPML1 inh -8, TRPV1 potentiator 17, gsp ag -9% and ClpP mod 0.8%.
Cc1cc(CCNC=O)c(C)c2c1oc1ccccc12 was read as gsp antag 7%, TRPML1 inh 5, gsp ag 20% and ClpP mod -1.0%.
For CC(C)CNC(=O)COC(=O)c1cc(S(=O)(=O)N(C)C)ccc1N1CCCC1 the results were Sfp inh 5%, Menin-MLL FL inh 2.2, gsp antag 9%, TRPML1 inh -14, TRPV1 potentiator 2 and gsp ag -2%.
Screening CCOc1cc2[nH]c(=O)n(CCC(=O)NCCc3ccc(OC)c(OC)c3)c(=O)c2cc1OCC returned Sfp inh -4%, Menin-MLL FL inh -0.4, gsp antag 19%, TRPML1 inh -2, TRPV1 potentiator -23, gsp ag 6% and ClpP mod inconclusive.
For Cc1cc(NC(=O)NN2CCOCC2)nn1-c1c(Cl)cc(Cl)cc1Cl the results were Sfp inh 21%, Menin-MLL FL inh 0.2, gsp antag -2%, TRPML1 inh -3, TRPV1 potentiator 12, gsp ag 24% and ClpP mod -4.8%.
Screening CCOc1cc(/C=N/NC(=O)C(=O)Nc2cc(Cl)ccc2C)ccc1O returned Sfp inh 5%, Menin-MLL FL inh 1.8, gsp antag -5%, TRPML1 inh -7, TRPV1 potentiator -1 and gsp ag -14%.
C=CCNc1cc(N2CCCC2)ccc1[N+](=O)[O-] was read as Sfp inh 1%, Menin-MLL FL inh -0.1, gsp antag -25%, TRPML1 inh 5, TRPV1 potentiator -22 and gsp ag 15%.
`COC(=O)c1nn(-c2ccccc2)c(Sc2ccc(C)cc2)c1/C=N/O` gave Sfp inh -3%, Menin-MLL FL inh 6.9, gsp antag -13%, TRPML1 inh -11, TRPV1 potentiator inconclusive, gsp ag -2% and ClpP mod 0.5%.
CS(=O)(=O)N(CC(=O)N1CCCC1)c1cc(C(F)(F)F)ccc1Cl was read as Sfp inh -5%, Menin-MLL FL inh -1.6, gsp antag 1%, TRPML1 inh 31, TRPV1 potentiator -5, gsp ag -2%[15.4 µM] and ClpP mod -3.4%.
For CCOc1ncccc1C(=O)OCC(=O)N(CC(C)C)c1c(N)n(Cc2ccccc2)c(=O)[nH]c1=O the results were gsp antag 9%, TRPML1 inh -2, TRPV1 potentiator 21 and gsp ag 42%[15.4 µM].
`CC(/C=C/C=C/c1ccccc1)=N/NC(=O)C(O)c1ccccc1` (stereo not drawn) gave Sfp inh -1%, Menin-MLL FL inh 2.3, gsp antag -1%, TRPML1 inh 7, TRPV1 potentiator -8 and gsp ag -46%[inhibitor].
For O=C(CN(C(=O)c1csnn1)c1cccc(Cl)c1)NC1CCCCC1 the results were Sfp inh 13%, gsp antag -7%, TRPML1 inh -2, TRPV1 potentiator 3, gsp ag -3%[15.4 µM] and ClpP mod 1.9%.
For O=C(CC1C(=O)NCCN1CC1CCCCC1)NCc1ccc(F)cc1 (stereo not drawn) the results were Sfp inh 8%, Menin-MLL FL inh 2.2, gsp antag -1%, TRPML1 inh -10, TRPV1 potentiator -6, gsp ag -10% and ClpP mod -7.9%.
`O=C(C1CCN(Cc2ccc(F)cc2)CC1)N(CCc1ccccc1)Cc1ccccc1` gave Sfp inh -21%, Menin-MLL FL inh 5.5, gsp antag 3%, TRPML1 inh 62, TRPV1 potentiator -8, gsp ag 15% and ClpP mod -4.8%.
`OC(C#CCN1CCCC1)(c1ccccc1)c1cccnc1` (stereo not drawn) gave Sfp inh inconclusive, Menin-MLL FL inh 0.3, gsp antag -9%, TRPML1 inh 0, TRPV1 potentiator 9 and gsp ag -6%[15.4 µM].
Screening CC1(C)C2CCC1(CS(=O)(=O)N1CCCc3ccccc31)C(=O)C2 (stereo not drawn) returned Sfp inh 0%, Menin-MLL FL inh -1.3, gsp antag -3%, TRPML1 inh 14, TRPV1 potentiator -18, gsp ag 6% and ClpP mod 0.3%.
Screening COc1cc2ncc(C(=O)c3ccccc3)c(N3CCN(Cc4ccccc4)CC3)c2cc1OC returned Sfp inh -16%, Menin-MLL FL inh 5.2, gsp antag 14%, TRPML1 inh 6, TRPV1 potentiator -15 and gsp ag -27%[15.4 µM].
For COC(=O)c1ccc(NC(=O)CCN2C(=O)C3C4CCC(C4)C3C2=O)cc1 (stereo not drawn) the results were Sfp inh 9%, Menin-MLL FL inh -1.9, gsp antag -14%, TRPML1 inh -10, TRPV1 potentiator 6, gsp ag -40%[inhibitor] and ClpP mod -3.8%.
COC(=O)C1C2OC(C(Br)C2Br)C1C(=O)OC (stereo not drawn) was read as TRPML1 inh -2, gsp ag 1% and ClpP mod 1.5%.
For CN(C)c1ncc(C(=O)O)cn1 the results were Sfp inh 17%, Menin-MLL FL inh 5.2, gsp antag 5%, TRPML1 inh -14, TRPV1 potentiator -17, gsp ag 15% and ClpP mod inconclusive.
For O=C(N/N=C/c1cccc2ccccc12)c1cccnc1 the results were Sfp inh 14%, Menin-MLL FL inh -6.7, gsp antag -8%, TRPV1 potentiator -7, gsp ag 0% and ClpP mod -3.5%.
CCC(C)C(=O)Nc1cccc(SC)c1 (stereo not drawn) was read as Sfp inh 10%, Menin-MLL FL inh 0.2 and TRPV1 potentiator -3.
For Cc1ccc(-c2nc(NC(=O)c3cc(C(C)(C)C)nn3C)sc2C)cc1Cl the results were Sfp inh -24%, Menin-MLL FL inh 0.7, gsp antag 4%, TRPML1 inh 5, TRPV1 potentiator 1, gsp ag 9%[15.4 µM] and ClpP mod -0.1%.
For CCN1CCN(c2ccc(NC(=O)c3ccc(Cl)c(N4CCCC4=O)c3)cc2)CC1 the results were Sfp inh 3%, Menin-MLL FL inh 2.1, gsp antag -3%, TRPML1 inh -28, TRPV1 potentiator 0 and gsp ag -34%[inhibitor].
COc1ccc(/C=C(/NC(=O)c2ccc(OC)cc2)C(=O)NCCc2c[nH]c3ccccc23)cc1 was read as Sfp inh -7%, Menin-MLL FL inh 1.4, gsp antag -9%, TRPML1 inh 11, TRPV1 potentiator 23, gsp ag -23% and ClpP mod -2.5%.

Sorted by heavy-atom count (high to low): 3 of the compounds above
COc1ccc(/C=C(/NC(=O)c2ccc(OC)cc2)C(=O)NCCc2c[nH]c3ccccc23)cc1 was read as Sfp inh -7%, Menin-MLL FL inh 1.4, gsp antag -9%, TRPML1 inh 11, TRPV1 potentiator 23, gsp ag -23% and ClpP mod -2.5%.
For O=C(CC1C(=O)NCCN1CC1CCCCC1)NCc1ccc(F)cc1 (stereo not drawn) the results were Sfp inh 8%, Menin-MLL FL inh 2.2, gsp antag -1%, TRPML1 inh -10, TRPV1 potentiator -6, gsp ag -10% and ClpP mod -7.9%.
COC(=O)C1C2OC(C(Br)C2Br)C1C(=O)OC (stereo not drawn) was read as TRPML1 inh -2, gsp ag 1% and ClpP mod 1.5%.
